Autofluor counter: flagged as autofluorescent in microsphere protease counterscreen. fluorescence intensity (test concentration not listed). hit rate 3.1% among 360,000. compound autofluorescence counterscreen, microsphere flow cytometry; active compounds read high;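 active means at least 3 SD above the mean of all compounds, about 16000 in these data; inconclusive means too few beads counted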;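 further: 100 nL of 1 mM stock went into each well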
Sa ugtP lethal: growth inhibition of ugtP-null S. aureus, primary screen, RN4220 ugtP deletion, OD600 | 16 h; some inactives read as strong as hits | growth inhibition, % (test concentration not listed) | hit rate 0.54% among 330,000 | AID 1259309, 2017;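 active means z-score under -3 and OD600 up to 0.15 on both plates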;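 further: plate controls were untreated wells for no effect and antibiotic for full effect; wells of about 80 µL received 100 nL stock; the first replicate is given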
PrP UTR inh: inhibition of PrP 5' UTR reporter expression | cell-based PrP 5' UTR mRNA reporter, plate reader | inhibition, % (concentration not given with the values) | hit rate 0.35% among 340,000 | AID 488862, 2010;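 active means every replicate at 50% or more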;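 further: 0 = median of the neutral control wells; tested in H4 reporter cells; numbers are from one replicate; inactives centre near -14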
Sa RN4220 lethal: growth inhibition of S. aureus RN4220, primary screen, OD600 | hit rate 0.33% among 330,000 | inhibition, % (no concentration beside the values) | AID 1259311, 2017 | 16 h;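 active means z-score of -3 or lower and OD600 up to 0.18 on both plates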;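 further: plate controls were untreated cells for no effect and reference antibiotic for full effect; stock transfer was 100 nL into about 80 µL; one replicate is shown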
BJeLR viability: MLPCN primary cell-based screen for lethality selective to Ras in HRASV12 cells; hit rate 0.17% among 300,000; BJeLR (HRASV12) viability, CellTiter-Glo ATP luminescence, 48 h; reference of the scale not given here; AID 1554, 2009; inhibition, % (concentration not given with the values);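 active means replicate mean above 50%; inconclusive means above 50% but judged a plate artefact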;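 further: 50 nL library stock added to about 25 µL; numbers are from one replicate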
Mtb hypoxia inh: PubChem AID 1159583; M. tuberculosis hypoxia-regulated fluorescent reporter, fluorescence; fluorescence inhibition, % (no concentration beside the values); hit rate 0.1% among 300,000;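 active means 35 to 45% if threefold the growth effect, above 45% if 1.5-fold the growth effect; inactive means the rest, general growth blockers included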;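 further: wells of about 50 µL received 100 nL stock; 0% = vehicle wells and 100% = reference inhibitor wells; whole bacteria with a GFP reporter of the hypoxia response; strong numbers were not always called active; many hits fall short of the cut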
Mtb hypoxia inh growth: second read-out of Mtb hypoxia inh, no call of its own (marks repeat the call); growth inhibition, %; measured here: M. tuberculosis growth (absorbance);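 0% = vehicle and 100% = reference antibiotic; read after six days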
Numbers without * were called inactive; u = inconclusive; x = not tested or not shown; & = joins results of further samples.

molecule	Mtb hypoxia inh	Mtb hypoxia inh growth	Sa ugtP lethal	BJeLR viability	Autofluor counter	Sa RN4220 lethal	PrP UTR inh
CC1(C)CSC(=S)N1S(=O)(=O)c1ccccc1	0	0	0	-4	10310	2.9	-24
C=C1C[C@H]2[C@@H]3C=C(C)C4=CC(=O)CC[C@]4(C)[C@H]3CC[C@]2(C)[C@@]1(OC(C)=O)C(C)=O	x	x	x	-19	4527	x	-1
CC(C)CNC(=O)C(=O)Nc1cc2c3c(c1)CCC(=O)N3CCC2	-2	-4	-2	-9	4380	0.3	0
CCN(CC)CCNC(=O)CCc1n[nH]c(=O)c2ccccc12	x	x	2	4	x	2.8	-9
CN(C1CCCCC1)S(=O)(=O)c1ccc(C(=O)O)cc1	3	12	7	4	2464	8.0	-9
CCSc1nnc(NC(=O)COc2ccccc2)s1	9	4	0	-12	4977	2.2	-25
Cc1ccc(N2CC(C(=O)Nc3ccc(N4CCOCC4)cc3)CC2=O)cc1C (configuration not stated)	10	18	8	2	3526	-1.7	4
CCNS(=O)(=O)c1ccc2nc(NC(=O)c3cccnc3)sc2c1	3	6	2	15	10643	3.3	-27
Cc1ccnc(N2CCC(C(=O)NNC(=O)c3ccncc3)CC2)n1	6	-1	9	6	3222	4.9	-24
O=C(NC(=S)Nc1ccc(C(=O)N2CCOCC2)cc1)c1ccc([N+](=O)[O-])cc1	0	-2	-2	-1	7905	-6.2	0
COc1ccc(/C=C2/CC/C(=C\c3ccc(OC)c(OC)c3OC)C2=O)c(OC)c1OC	8	8	-13	4	1994	9.1	3
CC(=O)N1CCN(C(=O)C2CCN(S(=O)(=O)c3ccccc3C(F)(F)F)CC2)CC1	4	6	1	x	3888	2.8	-19
Cc1[nH]c2ccc(Br)cc2c(=O)c1CN1CCCCCC1	-5	-4	-2	7	6258	1.7	13
CC(C)c1cc(C(=O)OCC(=O)N2CCN(C(=O)c3ccco3)CC2)c(O)c(C(C)C)c1	15	-10	10	-6	5653	-1.0	-5
COCC(=O)Nc1nc2n(n1)C(c1ccc(Cl)cc1)CC(c1ccc(OC)cc1)N2 (configuration not stated)	-6	-8	-12	-3	2935	0.7	-12

Looked up above.
CCSc1nnc(NC(=O)COc2ccccc2)s1 in BJeLR viability = -12
Cc1ccnc(N2CCC(C(=O)NNC(=O)c3ccncc3)CC2)n1 in Sa RN4220 lethal = 4.9
CC(C)c1cc(C(=O)OCC(=O)N2CCN(C(=O)c3ccco3)CC2)c(O)c(C(C)C)c1 in Autofluor counter = 5653

Going on with the list:
molecule	Mtb hypoxia inh	Mtb hypoxia inh growth	Sa ugtP lethal	BJeLR viability	Autofluor counter	Sa RN4220 lethal	PrP UTR inh
CC(C)COc1ccc(C(=O)N(CC(=O)Nc2ccccc2C(F)(F)F)Cc2ccco2)cc1	6	4	52	-1	6461	1.0	-4
COc1ccc(-c2nc3c(c(=O)c4ccccc4n3C)c(=O)n2Cc2ccccc2)cc1	10	6	-11	-8	2507	0.3	-25
CCOc1ccc(NC(=O)Cn2nnc(C(=O)NCc3cccs3)c2N)cc1	-3	-12	-1	0	5359	2.3	-22
COC(=O)CN1C(C)=Nc2ccc(Br)cc2C1c1ccccc1 (configuration not stated)	x	x	8	7	4593	-1.9	-10
O=C1CCCC2=C1C1c3ccccc3C(=O)N1c1ccc(C(=O)c3ccccc3)cc1N2 (configuration not stated)	14	-22	0	6	2450	9.4	-8
COCCNC(=S)NNC(=O)c1ccc(-n2cnnn2)cc1	10	4	6	-4	4439	5.6	-21
COC(=O)[C@H](CC(C)C)NC(=O)NCc1ccc(Cl)cc1	25	19	0	-4	x	2.1	-14
Nc1c(C(=O)O)cnc2nc(N3CCOCC3)nn12	13	-2	-8	-3	2131	7.5	-11
COc1cccc(/C=C2\SC(N)=NC2=O)c1OS(=O)(=O)c1ccccc1	-4	-2	6	4	3657	-1.6	-17
CC(C)(C)c1ccc(C(CC(=O)O)NC(=O)c2ccccc2F)cc1 (configuration not stated)	9	7	9	0	3461	4.6	-17
COc1ccc(C=NOCC(=O)OCC(=O)Nc2ccc(OC)cc2)cc1	9	6	6	x	7986	3.1	-8
Cc1ccc2oc(=O)c3cnn(CC(=O)NC4CCC(C)CC4)c3c2c1 (configuration not stated)	-1	8	7	2	5623	18	-9
CN1CC2C(c3ccccc3)C3(c4ccc(C#N)cc4)CC2(C3)C1c1ccccc1 (configuration not stated)	6	4	-3	x	x	-3.5	x
Nc1c(NCCc2ccccc2)c2ccccc2oc1=O	10	7	1	1	3192	11	-25
O=C(CSCc1nc2c(nnn2Cc2ccc(F)cc2)c(=O)[nH]1)Nc1c(Cl)cc(Cl)cc1Cl	x	x	x	-24	4278	x	-13
Cc1ccccc1-c1cc(C(=O)NCc2ccc(OC(F)(F)F)cc2)nn1CC1CC(c2cccc([N+](=O)[O-])c2)=NO1 (configuration not stated)	-3	14	0	x	4244	-2.1	-1
CCOc1ccc(-c2c(C(=O)NN=Cc3ccc(C)cc3)nnn2-c2nonc2N)cc1	10	2	11	x	x	-1.1	x
O=C(N=C1SC2CS(=O)(=O)CC2N1c1cccc(Cl)c1)C1CCCO1 (configuration not stated)	8	4	3	2	5386	0.8	-9
N#CCCN(CC(=O)O)S(=O)(=O)c1ccccc1	7	11	1	-9	3483	-4.0	-2
CCN(CC)S(=O)(=O)c1ccc(C(=O)OCC(=O)Nc2sc3c(c2C#N)CCCCC3)cc1	1	5	-2	1	2196	3.2	-40
CCCCN(CC)CCNC(=O)CCC(=O)Nc1ccc2nc(N3CCN(C)CC3)cc(C)c2c1	11	-1	4	6	4109	1.5	-1
COc1ccc(C=NNc2nnc(-c3ncc[nH]3)c3ccccc23)cc1	-2	5	-5	x	x	5.1	x
CC1(c2ccc(OC(F)F)cc2)NC(=O)N(CC(=O)NC2CCCCC2)C1=O (configuration not stated)	-5	0	1	1	11185	2.5	14
O=C(NCC1CCCO1)c1cc(-c2ccc(F)cc2)no1 (configuration not stated)	-7	-3	1	12	6337	2.4	-29
Cc1cc(C)c2cc(C(=O)Nc3ccccc3)[nH]c2c1	6	31	-9	-10	6240	6.8	-62
O=S(=O)(Nc1ccc2[nH]ncc2c1)c1ccccc1Cl	x	x	4	-4	4231	3.3	-8
O=C(Nc1ccc(Nc2ccccc2)cc1)N1CCOCC1	3	16	1	-2	8001	-0.1	-8
CCCCCn1c(=O)[nH]c2cc(C(=O)NC3CCN(Cc4ccccc4)CC3)ccc2c1=O	10	2	-2	3	4368	1.4	-7
COC(=O)C1C2C=CC3(CN(C(C)c4ccc(OC)cc4)C(=O)C13)O2 (configuration not stated)	x	x	6	-3	4331	4.3	10
COc1ccc(C2C=C(C(=O)O)OC(OCCCCO)C2)cc1 (configuration not stated)	-2&-1	-2&5	0&0	x	x	2.8&1.1	x

3 entries out of the list, arranged by SMILES length, lowest first:
molecule	Mtb hypoxia inh	Mtb hypoxia inh growth	Sa ugtP lethal	BJeLR viability	Autofluor counter	Sa RN4220 lethal	PrP UTR inh
Nc1c(C(=O)O)cnc2nc(N3CCOCC3)nn12	13	-2	-8	-3	2131	7.5	-11
COCCNC(=S)NNC(=O)c1ccc(-n2cnnn2)cc1	10	4	6	-4	4439	5.6	-21
O=C(CSCc1nc2c(nnn2Cc2ccc(F)cc2)c(=O)[nH]1)Nc1c(Cl)cc(Cl)cc1Cl	x	x	x	-24	4278	x	-13

Additional structures.
molecule	Mtb hypoxia inh	Mtb hypoxia inh growth	Sa ugtP lethal	BJeLR viability	Autofluor counter	Sa RN4220 lethal	PrP UTR inh
CCN(C(=O)CSc1nc(C)nc2sc(C)c(C)c12)C1CCS(=O)(=O)C1 (configuration not stated)	4	-5	9	x	6750	6.2	3
COc1ccc(N(CC(=O)N2CCc3ccccc3C2)S(=O)(=O)c2c(C)nn(C)c2C)cc1	x	x	4	x	4209	5.2	-4
CC1(C2CC2)NC(=O)N(CC(=O)N2CCN(c3ccccc3Cl)CC2)C1=O (configuration not stated)	6	-4	-1	x	u	1.0	-23
O=C1CCS/C(=N\N=C\c2ccc(Cl)cc2Cl)N1	x	x	x	0	3918	x	-25
O=C(COc1ccccc1Cl)N(Cc1cccs1)C1CCS(=O)(=O)C1 (configuration not stated)	12	-1	0	10	4628	-0.1	-33
CCOC(=O)C1=C(C)N=C(N=CN(C)C)SC1c1ccccc1 (configuration not stated)	-6	-4	-5	x	x	4.0	x
COc1ccc(NC(=O)Cn2nnc(C(=O)NCc3cccs3)c2N)cc1	-1	-7	2	-5	4598	1.3	-16
CNC(=O)c1ccsc1NC(=O)c1ccc(S(=O)(=O)N2CCCc3ccccc32)cc1	-5	4	-3	-7	6054	-4.0	-27
Cc1ccc(CNC(=O)CNS(=O)(=O)c2cccc3nsnc23)cc1	x	x	7	7	4117	2.6	-16
Cc1cccc(NC(=O)c2cccc3c2-c2ccccc2C3=O)n1	-18	-19	-1	-5	2170	-0.1	-17
Cc1cc(NC(=O)c2ccco2)ncc1NC(=O)Cc1ccccc1	x	x	4	-6	5369	-5.3	-38
CC(C)(C)c1ccc(-c2nnc(SCC(=O)NCC3CCCO3)n2N)cc1 (configuration not stated)	5	6	2	x	8687	8.9	-30
N#C/C(=C\c1ccc(Cl)cc1)c1nc2ncccc2[nH]1	x	x	0	-4	3638	1.8	-29
O=C(COC(=O)/C=C/c1cccc(Cl)c1)NC(=O)NCc1ccccc1	3	6	-1	x	2804	0.8	-18
Cc1ccccc1OCC(=O)OCC(=O)NCc1ccc2c(c1)OCO2	3	8	4	x	3789	4.9	-7

Reprinted at random: five entries already listed.
molecule	Mtb hypoxia inh	Mtb hypoxia inh growth	Sa ugtP lethal	BJeLR viability	Autofluor counter	Sa RN4220 lethal	PrP UTR inh
CCOC(=O)C1=C(C)N=C(N=CN(C)C)SC1c1ccccc1 (configuration not stated)	-6	-4	-5	x	x	4.0	x
O=C(COC(=O)/C=C/c1cccc(Cl)c1)NC(=O)NCc1ccccc1	3	6	-1	x	2804	0.8	-18
COc1ccc(N(CC(=O)N2CCc3ccccc3C2)S(=O)(=O)c2c(C)nn(C)c2C)cc1	x	x	4	x	4209	5.2	-4
N#C/C(=C\c1ccc(Cl)cc1)c1nc2ncccc2[nH]1	x	x	0	-4	3638	1.8	-29
Cc1cc(NC(=O)c2ccco2)ncc1NC(=O)Cc1ccccc1	x	x	4	-6	5369	-5.3	-38

The list goes on.
molecule	Mtb hypoxia inh	Mtb hypoxia inh growth	Sa ugtP lethal	BJeLR viability	Autofluor counter	Sa RN4220 lethal	PrP UTR inh
COc1ccc(F)cc1S(=O)(=O)N1CCN(C(=O)c2ccco2)CC1	13	16	16	-2	3446	6.3	-45
c1ccc(Cc2ccc(OCCCNC3CCCC3)cc2)cc1	16	25	7	6	x	-0.2	x
CS(=O)(=O)Nc1ccccc1NS(C)(=O)=O	14	-1	3	2	6375	2.1	x
COc1ccc(Sc2cc(C(F)(F)F)nc(-c3ccccn3)n2)cc1	12	7	2	-8	u	-5.3	-12
CC(Sc1nc2ncc(Cl)cc2[nH]1)C(=O)NC1(C#N)CCCCC1 (configuration not stated)	3	-4	6	x	6510	2.5	-1
CCCCOc1ccc(C(=O)NC(=S)Nc2ccc(CN3CCOCC3)cc2)cc1	15	7	6	12	8534	-1.1	-18
COC(=O)c1cccc(NS(C)(=O)=O)c1	7	1	6	-8	4795	3.7	-12

Bioassay records (PubChem BioAssay)
